# Cruzain inh Det: qHTS Assay for Promiscuous and Specific Inhibitors of Cruzain (with detergent) | 200,000 tested, 0.43% active | purified cruzain, Z-FR-AMC fluorescence, 0.01% Triton | AID 1478, 2009 | Potency, µM, without a hit: max response, negative = inhibition, actives largely listed as inhibitors | Cruzipain (Trypanosoma cruzi), P25779; active = well fitted curve in the direction sought with a large enough effect; inconclusive = small, poorly fitted or top-dose-only effect, or another doubt; inactive = no such curve, though single readings can be large; an effect the other way counts as inactive or inconclusive;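 note: plate controls were neutral wells for no effect and buffer without enzyme for full effect; nearly all actives have a fitted effect of over 40% in size; top concentration of the series not given in the record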
# Target sequence (P25779 123-467 limits assumed): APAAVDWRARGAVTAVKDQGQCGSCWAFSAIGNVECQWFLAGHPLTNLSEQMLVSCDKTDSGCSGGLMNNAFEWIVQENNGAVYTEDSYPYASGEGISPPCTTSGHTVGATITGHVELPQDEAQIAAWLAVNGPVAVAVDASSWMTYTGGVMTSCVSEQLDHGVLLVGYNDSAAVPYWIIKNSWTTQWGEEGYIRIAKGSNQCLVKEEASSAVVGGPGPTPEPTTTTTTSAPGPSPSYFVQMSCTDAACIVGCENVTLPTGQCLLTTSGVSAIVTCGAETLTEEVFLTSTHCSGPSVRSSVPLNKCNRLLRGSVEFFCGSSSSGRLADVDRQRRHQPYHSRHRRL
#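 Cruzain (1.5 nM) preincubated 15 min at RT with compound in 100 mM sodium acetate pH 5.5, 5 mM DTT, 0.01% Triton X-100. Reaction started with 2 uM Z-FR-AMC; AMC fluorescence (ex 360/em 450 nm) change over 60 s gave rate.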
# Lassa entry inh: qHTS for Inhibitors of binding or entry into cells for Lassa Virus | Potency, µM (titrated, usually from 37.9 µM), without a hit: at the highest dose activity change, negative = inhibition, hits mostly inhibitors | Lassa virus pseudotype entry inhibition, cell reporter; control for the full effect not named in the record | 300,000 tested, 1.2% active; active means well fitted inhibition curve with a large enough effect; inconclusive means small, poorly fitted or top-dose-only effect, or effect the other way; inactive means flat fitted curve, though single readings scatter; tested in HEK293 cells; note: % is set by controls: 0 for no effect and ±100 for the full control effect; nearly all actives have a fitted effect of over 50% in size; luciferase read-out
# MARV entry inh: qHTS for inhibitors of binding or entry into cells for Marburg Virus | Marburg virus pseudotyped entry inhibition, cell reporter; control for the full effect not named in the record; about a third of the inactives were read at about 46 µM | Potency, µM (series often up to 37.8 µM), for the others: top-dose activity change, negative = inhibition, actives largely listed as inhibitors | 300,000 tested, 1.8% active | AID 540276, 2011; active = well fitted inhibition curve with a large enough effect; inconclusive = small, poorly fitted or top-dose-only effect, or effect the other way; inactive = flat fitted curve, though single readings scatter; tested in HEK293 cells; about a fifth of its hits are not listed in these tables; note: % is set by controls: 0 for no effect and ±100 for the full control effect; luciferase read-out
# SARS PLpro yeast: qHTS of Yeast-based Assay for SARS-CoV PLP; 330,000 tested, 0.19% active; AID 485353, 2010; S. cerevisiae expressing SARS-CoV PLpro, growth rescue; control for the full effect not named in the record; Potency, µM (highest dose often 32.9 µM), for the others: top-dose activity, positive = growth rescue; note: 0% is about no effect; nearly all actives have a fitted effect of over 55% in size; growth read by luminescence after 48 h
# StopGo reporter: High Throughput Screening for Foot and Mouth Disease Virus Antivirals; human cells with a luciferase reporter of 2A StopGo recoding; control for the full effect not named in the record; Potency, µM (top dose mostly 57.9 µM), for the others: top-dose signal change, negative = less light; 410,000 tested, 1.2% active; active = well fitted falling curve with a large enough effect; inconclusive = small, poorly fitted or top-dose-only effect; inactive = no such curve, though single readings can be large or run the other way; tested in HEK293T cells; note: % is set by controls: 0 for no effect and ±100 for the full control effect; nearly all actives have a fitted effect of over 45% in size; luciferase light after 4 h
# RE007 growth inh: qHTS Assay for Inhibitors of the HIV-1 protein Vpr | S. pombe RE007 Vpr strain, BacTiter-Glo ATP luminescence, 24 h; control for the full effect not named in the record | Potency, µM (series often up to 92.2 µM), inactives show top-dose activity change, negative = less growth | 360,000 tested, 0.21% active | AID 651644, 2012; active = well fitted falling curve with a large enough effect; inconclusive = small, poorly fitted or top-dose-only effect; inactive = no such curve, though single readings can be large or run the other way;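 note: % is set by controls: 0 for no effect and ±100 for the full control effect; nearly all actives have a fitted effect of over 50% in size; the assay follows cell death caused by Vpr and the record does not say whether a fall means rescue or toxicity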
#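 Fission yeast RE007 carrying one integrated HIV-1 vpr copy, seeded at OD 0.01 in PMG+AL medium with 23 nL pinned compound. Grown 24 h at 30 degrees; viability read by BacTiter-Glo luminescence after 5 min.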
# Cruzain noTriton: qHTS Assay for Promiscuous and Specific Inhibitors of Cruzain (without detergent). purified cruzain, Z-FR-AMC fluorescence, no detergent. AID 1476, 2009. 200,000 tested, 2.3% active. Potency, µM, without a hit: max response, negative = inhibition, hits mostly inhibitors; active = well fitted curve in the direction sought with a large enough effect; inconclusive = small, poorly fitted or top-dose-only effect, or another doubt; inactive = no such curve, though single readings can be large; an effect the other way counts as inactive or inconclusive;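 note: plate controls were enzyme without inhibitor for no effect and buffer without enzyme for full effect; nearly all actives have a fitted effect of over 40% in size; top concentration of the series not given in the record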
#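 Detergent-free condition (0.00005% Triton X-100) in acetate buffer pH 5.5 with DTT. 1.5 nM enzyme and compound were pre-mixed 15 min, then 2 uM Z-FR-AMC substrate added; reaction progress from fluorescence change between first and third reads (60 s).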
# NS1 function inh: qHTS Assay for Inhibitors of Influenza NS1 Protein Function. S. cerevisiae slowed by influenza A NS1, growth recovery by OD600. 270,000 tested, 0.4% active. Potency, µM (highest dose often 46.1 µM), for the others: at the top dose activity, positive = more growth. AID 2326, 2010; note: actives are rising curves; nearly all actives have a fitted effect of over 50% in size
#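 Growth recovery, yeast-based: influenza A NS1 expressed in S. cerevisiae causes slow growth, and suppressors are detected by OD600. The parent strain without NS1 is used as positive control.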
# Active calls of the source: *; ? = inconclusive; / = no result given; & = joins results of further samples; [ ] = dose if it differs, or a comment. Unless noted, calls come from the whole dose curve; as a rule, active means well fitted rising curve with a large enough effect; inconclusive means small, poorly fitted or top-dose-only effect; inactive means no such curve, though single readings can be large or run the other way. Potency is the fitted concentration of half-maximal effect.
No. | molecule | Cruzain inh Det | Lassa entry inh | MARV entry inh | SARS PLpro yeast
1 | COC(=O)c1ccc(NC2c3ncccc3C(=O)N2Cc2cccs2)cc1 (stereo unspecified) | / | 25%[46.1 µM] | -12%[46.1 µM] | 2%
2 | CCCCNCc1cc(OCC)c(OCC(N)=O)cc1Br | 1.5% | 53%[14.3 µM] | -5% | 7%
3 | COc1cccc(CNC(=O)CCC2CCCN(Cc3ccc4c(c3)CCO4)C2)c1 (stereo unspecified) | / | / | / | 0%
4 | COc1ccc(C2/C=C\CN(C(=O)NC(C)C)CC(=O)N2Cc2ccc(F)cc2)cc1 (stereo unspecified) | / | / | / | 3%
5 | CC(C(=O)OCc1nnc(-c2ccccc2)o1)N1C(=O)c2ccccc2C1=O (stereo unspecified) | 0.1% | ? | -3% | 8%
6 | COc1ccc(C(=O)c2cnc(/N=C/N(C)C)s2)cc1 | -7.3% | 9% | 0% | -4%
7 | CCC(C(=O)NCCCN(CC)Cc1ccccc1)n1nc(C)c2sc3ccccc3c2c1=O (stereo unspecified) | / | / | / | 3%
8 | Cc1[nH]c(=O)c(C#N)cc1-c1csc(-c2ccccc2)n1 | / | / | / | -1%
9 | CCN(CC)c1ccc2cc(S(=O)(=O)c3ccc(C)cc3)c(=O)oc2c1 | -7.4% | -13% | 1% | -6%
10 | COC(=O)c1ccc(NC(=O)NS(=O)(=O)c2ccc(C)cc2)cc1 | 2.3% | 6% | -15% | 4%
11 | CCOC(=O)c1c(NC(=O)CCN2C(=O)c3cccc([N+](=O)[O-])c3C2=O)sc(C(=O)OC(C)C)c1C | -3.5% | 3% | 0% | -27%
12 | CCOC(=O)C1=C(C)NC(=O)NC1c1ccc(OCCO)c(OC)c1 (stereo unspecified) | 2.9% | 0% | 0% | 0%

No. | StopGo reporter | RE007 growth inh | Cruzain noTriton | NS1 function inh
1 | -9% | 8% | / | /
2 | -16% | 5% | -4% | 2%
3 | -11% | -11% | / | -4%
4 | 0% | -9% | / | 7%
5 | 22% | 2% | 1% | -58%
6 | 55%[activator] | 2% | -7% | 5%
7 | -10% | -8% | / | -5%
8 | -11% | -13% | / | 1%
9 | 15% | -3% | 7% | -1%
10 | 2% | -6% | 0% | 0%
11 | 0% | 7% | ? | -3%
12 | -22% | 1% | -5% | -11%

# Sorted by number of heavy atoms (smallest number first): 4 of the compounds above.
No. | molecule | Cruzain inh Det | Lassa entry inh | MARV entry inh | SARS PLpro yeast
6 | COc1ccc(C(=O)c2cnc(/N=C/N(C)C)s2)cc1 | -7.3% | 9% | 0% | -4%
1 | COC(=O)c1ccc(NC2c3ncccc3C(=O)N2Cc2cccs2)cc1 (stereo unspecified) | / | 25%[46.1 µM] | -12%[46.1 µM] | 2%
3 | COc1cccc(CNC(=O)CCC2CCCN(Cc3ccc4c(c3)CCO4)C2)c1 (stereo unspecified) | / | / | / | 0%
11 | CCOC(=O)c1c(NC(=O)CCN2C(=O)c3cccc([N+](=O)[O-])c3C2=O)sc(C(=O)OC(C)C)c1C | -3.5% | 3% | 0% | -27%

No. | StopGo reporter | RE007 growth inh | Cruzain noTriton | NS1 function inh
6 | 55%[activator] | 2% | -7% | 5%
1 | -9% | 8% | / | /
3 | -11% | -11% | / | -4%
11 | 0% | 7% | ? | -3%

# Of the compounds above, these have an aryl methoxy group.
No. | molecule | Cruzain inh Det | Lassa entry inh | MARV entry inh | SARS PLpro yeast
3 | COc1cccc(CNC(=O)CCC2CCCN(Cc3ccc4c(c3)CCO4)C2)c1 (stereo unspecified) | / | / | / | 0%
4 | COc1ccc(C2/C=C\CN(C(=O)NC(C)C)CC(=O)N2Cc2ccc(F)cc2)cc1 (stereo unspecified) | / | / | / | 3%
6 | COc1ccc(C(=O)c2cnc(/N=C/N(C)C)s2)cc1 | -7.3% | 9% | 0% | -4%
12 | CCOC(=O)C1=C(C)NC(=O)NC1c1ccc(OCCO)c(OC)c1 (stereo unspecified) | 2.9% | 0% | 0% | 0%

No. | StopGo reporter | RE007 growth inh | Cruzain noTriton | NS1 function inh
3 | -11% | -11% | / | -4%
4 | 0% | -9% | / | 7%
6 | 55%[activator] | 2% | -7% | 5%
12 | -22% | 1% | -5% | -11%

# The results go on:
No. | molecule | Cruzain inh Det | Lassa entry inh | MARV entry inh | SARS PLpro yeast
13 | COCC(C)N=C1NN=C(c2c[nH]c3ccccc23)CS1 (stereo unspecified) | -10.0% | 5% | 16% | 13%
14 | Cc1nc(N2CCc3ccccc3C2)[nH]c(=O)c1CCC(C)C | 1.4% | 18% | 17% | 5%
15 | CC(C)c1ccc(COc2ccc(C(=O)N3CCOCC3)cc2)cc1 | / | / | / | -3%
16 | O=c1c2ccccc2c(/C=N/c2nnc(Cc3ccccc3)s2)c(O)n1-c1ccc(Cl)cn1 | -3.5% | -2% | 4% | -18%
17 | CC(=O)c1ccc(NC(=O)C2C3C=CC(O3)C2C(=O)O)cc1 (stereo unspecified) | / | 23%[46.1 µM] | 12%[46.1 µM] | -3%
18 | Cc1ccc2oc3c(c(=O)c2c1)C(c1ccc(OCC(N)=O)cc1)N(Cc1ccc2c(c1)OCO2)C3=O (stereo unspecified) | -0.8% | 3%[46.1 µM] | 19%[46.1 µM] | /
19 | CCN(CC)c1ccc(S(=O)(=O)Nc2cc(Cl)ccc2Cl)cc1NC(=S)NC(=O)C1CCCC1 | -2.1% | -5% | ? | -7%
20 | c1ccc(-c2nnnn2CCOCCn2nnnc2-c2ccccc2)cc1 | 4.1% | 0% | -8% | 1%
21 | COc1ccc(C(=O)CN2CCCCC2)cc1 | / | ? | ? | 0%
22 | O=P1(c2ccccc2)Nc2ccccc2N1c1ccccc1 (stereo unspecified) | / | 2%[46.1 µM] | -24%[46.1 µM] | /
23 | Nc1nc(SCC(=O)NCCOCCO)nc2sc3c(c12)CCCC3 | / | -12% | 2%[14.2 µM] | 0%
24 | COc1cccc(CN2CCN(Cc3cc(OC)c(OC)cc3[N+](=O)[O-])CC2)c1 | 5.4% | -28% | ? | 5%

No. | StopGo reporter | RE007 growth inh | Cruzain noTriton | NS1 function inh
13 | 0% | 4% | -16% | ?
14 | 37%[activator] | 6% | ? | 2%
15 | 4% | 3% | / | 1%
16 | 9% | 3% | ? | 24%
17 | 1% | 7% | / | 0%
18 | -18% | / | 11% | /
19 | 0% | 2% | 32µM* | 7%
20 | / | -4% | -4% | 2%
21 | 18% | -7% | / | /
22 | -5% | 1% | / | /
23 | 19% | 2% | / | 7%
24 | -7% | 11% | -3% | 1%

# Later entries:
No. | molecule | Cruzain inh Det | Lassa entry inh | MARV entry inh | SARS PLpro yeast
25 | CCOC(=O)CSc1ccc(S(=O)(=O)N2CCCC2)cc1[N+](=O)[O-] | / | 27%[46.1 µM] | -5%[46.1 µM] | -2%
26 | O=C(Nc1ccnn1C1CCN(CCCC2CCCC2)CC1)c1ccccc1Cl | / | / | / | 0%
27 | COc1cccc(-c2nnc(NC(=O)c3ccccc3Br)o2)c1 | / | / | / | -8%
28 | OCCNc1nc(Nc2ccccc2)nc2ccccc12 | ? | -22% | ? | -1%
29 | COc1ccc(C(=O)N/C(=C\c2cn(S(=O)(=O)N(C)C)c3ccccc23)C(=O)NCCCN2CCOCC2)cc1 | / | / | / | 25%
30 | CN(C(=O)c1cc2c(s1)-c1ccccc1S(=O)(=O)C2)c1ccccc1 | / | 1% | -7%[46.1 µM] | 1%
31 | O=c1c2c3nc4ccccc4nc3n(-c3ccc4c(c3)OCCO4)c2ncn1C1CCCC1 | -7.7% | ? | ? | -1%
32 | COCCN(CC(=O)Nc1ccccc1)S(=O)(=O)c1ccc(S(=O)(=O)N2CCCC2)cc1 | 0.8% | 5% | -7%&-7% | -1%
33 | O=C(O)CCc1c(C(=O)O)[nH]c2ccccc12 | 2.6% | 12% | 19% | 2%

No. | StopGo reporter | RE007 growth inh | Cruzain noTriton | NS1 function inh
25 | 7% | 1% | / | /
26 | -3% | -10% | / | -3%
27 | -4% | -5% | / | -72%
28 | -22% | 1% | 16µM* | -13%
29 | 5% | 8% | / | 2%
30 | 10% | 1% | / | -11%
31 | ? | -1% | ? | -14%
32 | -19% | 15% | 4% | -19%
33 | -18% | 5% | 5% | -5%

# Screening results from PubChem BioAssay.

# Rows are unselected; overall some 4.7% were active at least once.
